Menin-MLL FL inh: inhibitors of human menin-MLL interaction, wild-type MLL peptide | AID 1766 | 290,000 tested, under 10 active | FP activity change, % at 61.4 µM | Fluorescence polarization, fluorescein-MLL peptide displacement from menin; inconclusive = falling polarisation curve, or a change in total fluorescence; inactive = total fluorescence flat and polarisation flat or rising; no compound was filed as active; the % refers to the polarisation; negative = inhibition;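 also: % of control where 0% means no effect; inhibitors lower the polarisation; unlabelled MLL peptide was the positive control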
Sfp inh: blocks B. subtilis Sfp PPTase activity; Biochemical Sfp PPTase activity, qHTS; Potency, µM, for the others: max response, negative = inhibition, hits mostly inhibitors; AID 1490; Q9F4F7; 3.5% of 310,000 active; active = well fitted inhibition curve with a large enough effect; inconclusive = small, poorly fitted or top-dose-only effect, or another doubt; inactive = no such curve, though single readings can be large or run the other way;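 also: the enzyme is Sfp with the accession as filed and its product quenches rhodamine fluorescence; potency is read from the fitted curve at half-maximal effect; 0% = enzyme reaction without inhibitor and -100% = no enzyme wells; top concentration of the series not given in the record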
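Fluorescence-quenching assay: 15 nM Sfp-PPTase preincubated 15 min at room temperature with compound, then 5 uM rhodamine-CoA and 12.5 uM BHQ-2-labelled YbbR peptide added. Fluorescence (ex 525/em 598 nm) read at start and after 30 min; difference gives rate.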
TRPV1 PAM: potentiators of human vanilloid receptor 1 (TRPV1). potentiation, % at 8.33 µM. TRPV1-expressing cells, Fluo-8 calcium influx, capsaicin EC20 potentiation; host cell line not named in the record; control for the full effect not named in the record. 0.02% of 320,000 active. Q8NER1. AID 540277; active means potentiation above 80%; inconclusive means 30% to 80%; inactive means below 30%; also: 0% is about no effect
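Cells expressing TRPV1 were dye-loaded with Fluo-8 and read kinetically: 10 s baseline, 3 min after compound (agonist portion), then 2 min after EC20 capsaicin (allosteric enhancer portion). Calcium-bound dye fluorescence at 480/520 nm.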
gsp antagonist: antagonizes gsp, the McCune-Albright syndrome mutation | Potency, µM (series often up to 76.9 µM), inactives show at the highest dose activity change, negative = inhibition, hits mostly inhibitors | 0.4% of 340,000 active | gsp-mutant cells, cAMP HTRF, 30 min; control for the full effect not named in the record; active = falling curve of any shape with a large fitted effect; inconclusive = falling curve, mostly with a smaller effect; inactive = flat or rising curve; cell line not stated here;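 also: intracellular cAMP measured with PDE inhibitor Ro 20-1724 present during compound exposure; potency is read from the fitted curve at half-maximal effect; % is scaled to controls: 0 for no effect and ±100 for the full control effect; nearly all actives have a fitted effect of over 65% in size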
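G418-selected cells were plated in DMEM/10% FBS for 16-24 h at 37C, then treated with compounds plus the PDE inhibitor […] (300 uM solution added) for 30 min at 37C. Intracellular cAMP was measured by HTRF after 30 min lysis at room temperature.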
D2 potentiator: potentiates the human D2 dopamine receptor allosterically. P14416. DiscoveRx D2 beta-arrestin cells, luminescence, 90 min; 100% = 57 uM dopamine signal. potentiation, % (test concentration not listed). 0.23% of 360,000 active; active = potentiation of 50% or more; inconclusive = 30% to 50%; inactive = 30% or less;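 also: compound concentration not given in the record; tested on top of an EC20 dose of dopamine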
Target sequence (P14416 whole entry, looked up): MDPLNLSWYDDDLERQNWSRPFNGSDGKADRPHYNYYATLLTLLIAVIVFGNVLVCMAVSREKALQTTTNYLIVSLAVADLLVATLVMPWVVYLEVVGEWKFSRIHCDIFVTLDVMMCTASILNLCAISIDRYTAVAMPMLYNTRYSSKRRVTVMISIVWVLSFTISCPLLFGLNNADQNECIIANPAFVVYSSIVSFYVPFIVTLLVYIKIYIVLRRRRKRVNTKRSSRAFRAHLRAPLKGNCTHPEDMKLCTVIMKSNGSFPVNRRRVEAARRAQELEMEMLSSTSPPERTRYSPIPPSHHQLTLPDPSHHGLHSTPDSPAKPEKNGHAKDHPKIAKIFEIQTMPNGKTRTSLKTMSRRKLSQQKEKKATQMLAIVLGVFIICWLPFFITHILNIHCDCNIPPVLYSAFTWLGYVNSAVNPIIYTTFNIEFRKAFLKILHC
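PathHunter beta-arrestin assay in DiscoveRx D2 cells. Compounds were added with an EC20 of dopamine (50 nM final) for 90 min at 37 deg C. Luminescence was read 1 h after detection reagent, with 57 uM dopamine as the EC100 control.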
ClpP mod: qHTS Assay for Activators of ClpP; Potency, µM (top dose mostly 57.5 µM), inactives show at the top dose activity change, negative = active; 1.9% of 340,000 active; ATP-dependent Clp protease proteolytic subunit (Bacillus subtilis (strain 168)), P80244; purified B. subtilis ClpP, FRET peptide cleavage, 20 min; AID 651965, 2013; active = well fitted falling curve with a large enough effect; inconclusive = small, poorly fitted or top-dose-only effect; inactive = no such curve, though single readings can be large or run the other way; also: potency is read from the fitted curve at half-maximal effect; the source files actives as falling curves though it sought activators and does not explain the sign; nearly all actives have a fitted effect of over 65% in size; many hits overshoot -100%
Target sequence (P80244 whole entry, looked up): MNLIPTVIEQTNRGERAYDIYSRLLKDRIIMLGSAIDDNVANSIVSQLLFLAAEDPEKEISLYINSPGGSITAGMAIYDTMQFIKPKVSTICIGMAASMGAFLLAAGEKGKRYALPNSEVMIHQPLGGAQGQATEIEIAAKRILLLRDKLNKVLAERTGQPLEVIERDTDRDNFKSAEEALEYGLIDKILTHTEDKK
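FRET quenching reversal measured ClpP activation: 10 microg/mL B. subtilis ClpP at pH 8 with the FRET-FV decapeptide, read at 430 nm after 320 nm excitation. The 20-min minus 0-min signal was scaled between DMSO/no-enzyme wells and ADEP (5.8 microM final).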
gsp ag: gsp mutant agonism; gsp mutant cells, cAMP HTRF, 30 min; control for the full effect not named in the record; Potency, µM (series often up to 76.9 µM), for the others: at the top dose activation (cAMP increase), most hits filed as activators; 0.13% of 340,000 active; active = well fitted activation curve with a large enough effect; inconclusive = small, poorly fitted or top-dose-only effect, or another doubt; inactive = no such curve, though single readings can be large or run the other way; cell line not stated here;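 also: phosphodiesterase inhibitor Ro 20-1724 added with compounds to block cAMP breakdown; potency is read from the fitted curve at half-maximal effect; nearly all actives have a fitted effect of over 60% in size; about a fifth of the inactives were tested at one dose only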
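Cells in DMEM/10% FBS with G418 were pretreated with compounds in DMSO plus […] (300 uM stock) for 30 min at 37C. cAMP was measured by HTRF (cAMP-d2 plus anti-cAMP antibody-K) after 30 min at room temperature.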
* = called active by the depositor; ? = inconclusive; . = not tested or not shown; & = joins results of further samples; [ ] = dose if it differs, or a comment.

Start of the data: the first five entries, ahead of the listing:
Under each structure – Menin-MLL FL inh, Sfp inh, TRPV1 PAM, gsp antagonist, D2 potentiator, ClpP mod, gsp ag
CC1(C)CC(n2c(=S)[nH]c3ccccc3c2=O)CCO1 (stereo not given)
→ 2.3, 19%, -6, -2%, -4, -0.8%, -12%
Cc1cccc(N2CCN(C(=O)c3ccc4nccnc4c3)CC2C)c1 (stereo not given)
→ ., ., ., 4%, 0, ., -7%
COC(=O)CSc1nc(-c2ccc(C)cc2)c2c(c1C#N)CCCC2
→ 2.8, ?, 12, -18%, -2, 28µM*, 7%
CCCC[C@@H]1CNC(=S)N1CC1CCCCC1
→ 2.6, 13%, -33, -10%, -2, 0.0%, -17%
O=c1[nH]c(CN2CCN(c3ccccc3)CC2)nc2ccccc12
→ 9.8, -10%, 20, 2%, -21, ?, -24%

The whole of this part (from the top)
Under each structure – Menin-MLL FL inh, Sfp inh, TRPV1 PAM, gsp antagonist, D2 potentiator, ClpP mod, gsp ag
CC1(C)CC(n2c(=S)[nH]c3ccccc3c2=O)CCO1 (stereo not given)
→ 2.3, 19%, -6, -2%, -4, -0.8%, -12%
Cc1cccc(N2CCN(C(=O)c3ccc4nccnc4c3)CC2C)c1 (stereo not given)
→ ., ., ., 4%, 0, ., -7%
COC(=O)CSc1nc(-c2ccc(C)cc2)c2c(c1C#N)CCCC2
→ 2.8, ?, 12, -18%, -2, 28µM*, 7%
CCCC[C@@H]1CNC(=S)N1CC1CCCCC1
→ 2.6, 13%, -33, -10%, -2, 0.0%, -17%
O=c1[nH]c(CN2CCN(c3ccccc3)CC2)nc2ccccc12
→ 9.8, -10%, 20, 2%, -21, ?, -24%
CN(C)C(=S)Nc1ccc(S(=O)(=O)N2CCCCC2)cc1
→ -1.9, 16%, -16, 4%, -3, -3.3%, -2%[15.4 µM]
Cc1ccccc1C(=O)Nc1nnc(SCC(=O)NCc2ccco2)s1
→ ., -1%, 9, 3%, -5, -5.8%, -2%
CSc1nc(C)c2cc(C)oc2n1
→ 3.5, 4%, 25, 6%, -12, -2.4%, 1%
NS(=O)(=O)c1ccccc1
→ 3.7, 9%, 6, 6%, 0, ., 21%[15.4 µM]
CCCCCCCCCC(=O)N/N=C(\C)c1cccnc1
→ 2.1, 9%, -16, 23%, 8, 0.9%, 3%
Cc1ccc(S(=O)(=O)Nc2ccc(C(=O)NCCCN3CCOCC3)cc2)cc1[N+](=O)[O-]
→ ., ., 9, -3%, -69, ., 30%[15.4 µM]
COc1cc(-c2cccs2)cc(=O)c2c(C)oc(C)c12
→ ?, 45µM*, -14, -16%, -4, -2.2%, -46%
O=C(Cn1cnnn1)Nc1ccccc1Cc1ccccc1
→ -1.6, 7%, 13, 11%, 0, 28µM*, 1%
COc1ccc(-n2cnnc2SCC(=O)NC2CC2)cc1
→ ., ., ., ., -6, 1.2%, -57%[inhibitor]
OCCC1CN(Cc2cccn2-c2cccnc2)CCN1C1CCCCC1 (stereo not given)
→ -22, -4%, -2, 8%, -8, ., 18%[15.4 µM]
CCOC(=O)CC(NC(=O)c1cccs1)c1ccc(OCC)cc1 (stereo not given)
→ 2.0, 13%, -26, -4%, 5, 0.3%, 2%
CCC(=O)NC(=S)Nc1cccc(NC(=O)c2ccccc2)c1
→ -0.1, -5%, -24, -14%, 0, ., -17%
CCN1CCN(Cc2ccc(NC(=O)c3cc(NC(=O)C4=NN(c5ccccc5)C(=O)C4)cc(OC)c3)cc2C(F)(F)F)CC1
→ 0.8, -11%, -50, 8%, -8&-30, -1.6%&-3.5%, -40%&21%
COc1ccc2c(c1)CCN(C(=O)CCl)C2C1C(=O)CCCC1=O (stereo not given)
→ -2.8, -3%, -14, 6%, -3, ., -11%[15.4 µM]
Cc1ccnc(NS(=O)(=O)c2ccc(-n3cccn3)cc2)c1
→ -2.5, 12%, 7, 4%, -10, ?, -19%
Cc1nc(SCC(=O)Nc2ccc(Cl)cc2[N+](=O)[O-])nc(C)c1C
→ 2.8, -63%, -2, -10%, 13, -0.5%, 1%
CC1CCCC(C)N1/N=C/c1ccc(C#N)cc1 (stereo not given)
→ -1.8, 4%, 0, -9%, 0, ., -9%
COCCn1c(SCC(=O)NCc2ccccc2)nnc1-c1ccco1
→ 0.9, 10%, -4, -5%, -1, 0.7%, -1%
COc1cccc(-c2cc3nc4c(c(N5CCC6(CC5)OCCO6)n3n2)CCC4)c1
→ 3.3, -12%, -5, -17%, -1, -12%, -1%
Cn1c(=O)[nH]c2nnc(-c3ccc(Cl)c(Cl)c3)nc2c1=O
→ -6.8, ?, -5, 1%, -9, 2.7%, 28%[15.4 µM]
CCN(CC(=O)Nc1ccc(NC(C)=O)cc1)c1ccc(C(F)(F)F)cn1
→ 1.9, 4%, 15, 2%, -6, -10%, 10%
O=C(CCC1CCCN(Cc2ccc3c(c2)OCCO3)C1)NCc1ccc(F)c(F)c1 (stereo not given)
→ 0.5, -5%, -3, 4%, -21, -2.7%, -23%
CC(C)CNC(=O)c1ccc(COc2ccc(Cl)cc2Cl)o1
→ -1.7, -2%, -10, -16%, -6, 0.6%, -19%
Cc1ccnc(NC(=O)/C=C/c2ccccc2[N+](=O)[O-])c1
→ 0.8, 4%, -9, ., ., ., .
Cc1cc(/C=C(\C#N)C(=O)NCC2CCCO2)c(C)n1-c1ccc(Cl)cc1 (stereo not given)
→ 5.4, -8%, -27, 5%, -17, -7.6%, 11%
C=CCNC(=S)N1CCc2[nH]c3ccccc3c2C1
→ -0.9, 12%, -10, -1%, -3, -0.3%, -4%[15.4 µM]
CN(C)CCn1c2c(c(SCC(=O)NCc3ccccc3)nc1=O)CCC2
→ ., ., -6, 4%, 2, -1.6%, 14%
CC(C)N1CC2(c3ccccc3)CN(C(C)C)CC(c3ccccc3)(C1)C2=O
→ 0.0, 15%, 1, 3%, -6, 0.3%, -4%
CC(C)NCCOc1cccc(Br)c1
→ 0.9, 2%, -3, 9%, -37, -2.2%, -1%
Cc1c(NC(=O)/C(C#N)=C/c2ccccc2)c(=O)n(-c2ccccc2)n1C
→ 4.0, -4%, 3, -12%, -4, -2.0%, -14%[15.4 µM]
N#CC1=C(SCC(=O)Nc2ccccc2)NC(=O)CC1c1ccco1 (stereo not given)
→ ., ., ., 4%, 7, -3.2%, 3%
Nc1nc2ccccc2n1/N=C/c1ccc2c(c1)OCO2
→ 4.0, -2%, -16, -9%, -4, ., -6%[15.4 µM]
Cc1ccnc(NS(=O)(=O)c2ccc(NC(=O)c3cc(-c4ccc(Br)cc4)nc4ccccc34)cc2)n1
→ ., 30%, 2, -33%, 4, 14%, 19%[15.4 µM]
CCOc1ccc(NC(=S)NC(C)C(c2ccccc2)N2CCN(C)CC2)cc1 (stereo not given)
→ 5.4, 13%, 15, 5%, -20, ., -4%[15.4 µM]
CN(C)c1ccc(C(CNS(=O)(=O)c2ccc3ccccc3c2)N2CCOCC2)cc1 (stereo not given)
→ ., ., 0, -3%, -16, -2.7%, -58%[inhibitor]
Nc1nc(Br)c2c(F)cccc2c1-c1ccc(Cl)cc1
→ 4.8, -20%, ., -8%, -5, -5.9%, 1%
O=C1NC(c2ccccc2)(C(F)(F)F)SC2=NCCCN12 (stereo not given)
→ 0.6, 21%, -39, 7%, -6, 1.4%, -40%[inhibitor]
O=C(COC(=O)c1ccc(S(=O)(=O)N2CCCCC2)cc1)NCc1ccc(F)cc1
→ ., ., -34, 11%, 13, -25%, 0%
CC(=O)Nc1ccc(S(=O)(=O)NC(CC(=O)NCCCN2CCOCC2)C(C)C)cc1 (stereo not given)
→ 1.9, 14%, ., -1%, 19, -3.1%, -1%
CN(C)C/C=C/C(O)(c1ccccc1)c1ccccc1
→ 0.2, 18%, 3, 1%, -19, ., -3%[15.4 µM]
Cc1csc(NC(=O)C(CC(C)C)NS(=O)(=O)c2ccc3c(c2)oc(=O)n3C)n1 (stereo not given)
→ -2.1, -15%, 3, -2%, -4, -0.8%, -36%[inhibitor]
CCOc1ncccc1C(=O)OCC(=O)NC1CC1
→ -1.7, 19%, 17, 11%, 1, ., 18%
CCc1ccc(-c2nc(CN3CCC(C(=O)N4CCN(c5ccccn5)CC4)CC3)c(C)o2)cc1
→ 3.6, ?, 2, 5%, -7, ?, 11%
N/C(=N\OS(=O)(=O)c1ccc2ccccc2c1)c1ccncc1
→ 2.5, 11%, 0, 3%, 151*, 0.5%, ?
O=C(Nc1ccc2c(c1)C(=O)NC2=O)c1cccc(Cl)c1
→ 0.1, 5%, -15, 16%, -1, -9.9%, 44%
O=C(N/N=C/c1ccc(C(=O)O)cc1)C1=NNC(c2ccccc2)(c2ccccc2)C1
→ 0.2, -11%, -7, -18%, -10, 3.0%, -9%
CCOC(=O)N1CCC(C(N)=O)CC1
→ -0.3, 6%, 19, 7%, -19, 1.3%, -24%
Cc1cc2c(cc1S(=O)(=O)Nc1ccc(F)cc1)n(C)c(=O)c(=O)n2C
→ 1.6, 20%, -5, -14%, 0, -0.7%, -6%
COCOCCn1cc(CN2CCS(=O)(=O)N(Cc3ccc(-c4cccc(N(C)C)c4)cc3)C(C(C)C)C2=O)nn1 (stereo not given)
→ ., ., ., ., -7, 3.7%, ?
N#CC(=C=[N-])/C=C(\C(=O)c1ccccc1)[n+]1ccccc1
→ 1.4, -3%, ., 21%, 2, ., -17%[15.4 µM]
COc1ccc(N(C(=O)c2ccco2)C(C(=O)NC2CCCC2)c2cccs2)cc1 (stereo not given)
→ -1.4, 3%, -11, -10%, -5, ., 10%[15.4 µM]
CC1(C)CC(=O)C2=C(C1)Nc1cc(Cl)ccc1S2
→ ?, -2%, -6, -16%, 29, ?, -1%[15.4 µM]
COC(=O)Cc1c[nH]c2cccc(OCC(O)CN(Cc3ccc([N+](=O)[O-])cc3)C(C)(C)C)c12 (stereo not given)
→ 6.6, -10%, 1, -3%, -3, -1.8%, 9%
CN1/C(=C\C(=O)CSc2nnc(NCc3ccccc3)s2)C(C)(C)c2ccccc21
→ 20, -18%, 0, -22%, -3, 1.3%, -3%
Cc1cc(C)c(OCCCCN(C)Cc2ccccc2)c(C)c1
→ 0.0, ?, -14, 4%, -83, 1.3%, -12%

Bioassay records deposited in PubChem by National Center for Advancing Translational Sciences (NCATS).
